# Cruzain Triton: cruzain (T. cruzi) inhibition with detergent; P25779; purified cruzain, Z-FR-AMC fluorescence, 0.01% Triton; Potency, µM, for the others: max response, negative = inhibition, hits mostly inhibitors; 200,000 tested, 0.43% active; active = well fitted curve in the direction sought with a large enough effect; inconclusive = small, poorly fitted or top-dose-only effect, or another doubt; inactive = no such curve, though single readings can be large; an effect the other way counts as inactive or inconclusive;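 note: plate controls were neutral wells for no effect and buffer without enzyme for full effect; nearly all actives have a fitted effect of over 40% in size; top concentration of the series not given in the record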
# Target sequence (P25779 123-467 limits assumed): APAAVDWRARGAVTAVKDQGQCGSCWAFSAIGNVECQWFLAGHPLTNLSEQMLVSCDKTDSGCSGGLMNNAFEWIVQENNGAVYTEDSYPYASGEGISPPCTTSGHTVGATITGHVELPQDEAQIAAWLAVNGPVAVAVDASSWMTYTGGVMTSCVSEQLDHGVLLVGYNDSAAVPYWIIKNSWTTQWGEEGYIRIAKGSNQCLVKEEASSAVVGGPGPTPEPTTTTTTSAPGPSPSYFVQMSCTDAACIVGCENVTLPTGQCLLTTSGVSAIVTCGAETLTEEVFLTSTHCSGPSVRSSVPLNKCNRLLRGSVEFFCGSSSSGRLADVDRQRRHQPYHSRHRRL
#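 Sodium acetate buffer (100 mM, pH 5.5) containing 5 mM DTT and 0.01% Triton X-100 hosted 1.5 nM cruzain and test compound for 15 min at room temperature. Cleavage of 2 uM Z-FR-AMC was then tracked by fluorescence.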
# RE007 growth inh: less growth of the S. pombe RE007 Vpr strain. S. pombe RE007 Vpr strain, BacTiter-Glo ATP luminescence, 24 h; control for the full effect not named in the record. Potency, µM (top dose mostly 92.2 µM), inactives show at the top dose activity change, negative = less growth. 360,000 tested, 0.21% active; active = well fitted falling curve with a large enough effect; inconclusive = small, poorly fitted or top-dose-only effect; inactive = no such curve, though single readings can be large or run the other way;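 note: % is set by controls: 0 for no effect and ±100 for the full control effect; nearly all actives have a fitted effect of over 50% in size; the assay follows cell death caused by Vpr and the record does not say whether a fall means rescue or toxicity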
#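 Fission yeast strain RE007, carrying one chromosomally integrated HIV-1 vpr copy, was seeded at OD 0.01 in PMG+AL medium with 23 nL pinned compound. After 24 h at 30 °C and 99% humidity, viability was read by BacTiter-Glo luminescence.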
# NS1 inh: blocks influenza NS1 protein function | S. cerevisiae slowed by influenza A NS1, growth recovery by OD600 | Potency, µM (highest dose often 46.1 µM), without a hit: at the top dose activity, positive = more growth | 270,000 tested, 0.4% active | AID 2326; note: actives are rising curves; nearly all actives have a fitted effect of over 50% in size
#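 Growth recovery, yeast-based: influenza A NS1 expressed in S. cerevisiae causes slow growth, and suppressors are detected by OD600. The parent strain without NS1 is used as positive control.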
# Lassa entry inh: inhibitors of Lassa virus binding or cell entry. Lassa virus pseudotype entry inhibition, cell reporter; control for the full effect not named in the record. 300,000 tested, 1.2% active. Potency, µM (top dose mostly 37.9 µM), for the others: at the top dose activity change, negative = inhibition, actives largely listed as inhibitors; active means well fitted inhibition curve with a large enough effect; inconclusive means small, poorly fitted or top-dose-only effect, or effect the other way; inactive means flat fitted curve, though single readings scatter; tested in HEK293 cells; note: % is set by controls: 0 for no effect and ±100 for the full control effect; nearly all actives have a fitted effect of over 50% in size; luciferase read-out
# SARS PLpro yeast: inhibitors of SARS-CoV papain-like protease in yeast; Potency, µM (series often up to 32.9 µM), without a hit: at the highest dose activity, positive = growth rescue; S. cerevisiae expressing SARS-CoV PLpro, growth rescue; control for the full effect not named in the record; 330,000 tested, 0.19% active; note: 0% is about no effect; nearly all actives have a fitted effect of over 55% in size; growth read by luminescence after 48 h
# Cruzain inh noDet: blocks cruzain activity in detergent-free assay; P25779; purified cruzain, Z-FR-AMC fluorescence, no detergent; Potency, µM, for the others: max response, negative = inhibition, usual class: inhibitors; 200,000 tested, 2.3% active; active = well fitted curve in the direction sought with a large enough effect; inconclusive = small, poorly fitted or top-dose-only effect, or another doubt; inactive = no such curve, though single readings can be large; an effect the other way counts as inactive or inconclusive;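 note: plate controls were enzyme without inhibitor for no effect and buffer without enzyme for full effect; nearly all actives have a fitted effect of over 40% in size; top concentration of the series not given in the record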
#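 Detergent-free condition (0.00005% Triton X-100) in acetate buffer pH 5.5 with DTT. 1.5 nM enzyme and compound were pre-mixed 15 min, then 2 uM Z-FR-AMC substrate added; reaction progress from fluorescence change between first and third reads (60 s).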
# MARV entry inh: blocks Marburg virus binding to or entry into cells; Marburg virus pseudotyped entry inhibition, cell reporter; control for the full effect not named in the record; about a third of the inactives were read at about 46 µM; Potency, µM (series often up to 37.8 µM), for inactives: top-dose activity change, negative = inhibition, usual class: inhibitors; 300,000 tested, 1.8% active; active = well fitted inhibition curve with a large enough effect; inconclusive = small, poorly fitted or top-dose-only effect, or effect the other way; inactive = flat fitted curve, though single readings scatter; tested in HEK293 cells; about a fifth of its hits are not listed in these tables; note: % is set by controls: 0 for no effect and ±100 for the full control effect; luciferase read-out
# StopGo reporter: lowers the luciferase signal of an FMDV 2A StopGo reporter | human cells with a luciferase reporter of 2A StopGo recoding; control for the full effect not named in the record | Potency, µM (highest dose often 57.9 µM), for the others: top-dose signal change, negative = less light | 410,000 tested, 1.2% active; active = well fitted falling curve with a large enough effect; inconclusive = small, poorly fitted or top-dose-only effect; inactive = no such curve, though single readings can be large or run the other way; tested in HEK293T cells; note: % is set by controls: 0 for no effect and ±100 for the full control effect; nearly all actives have a fitted effect of over 45% in size; luciferase light after 4 h
# Numbers without * were called inactive; ? = inconclusive; . = no result given; & = joins results of further samples; [ ] = dose if it differs, or a comment. Unless noted, calls come from the whole dose curve; as a rule, active means well fitted rising curve with a large enough effect; inconclusive means small, poorly fitted or top-dose-only effect; inactive means no such curve, though single readings can be large or run the other way. Potency is the fitted concentration of half-maximal effect. Compounds were not picked by outcome; 4.7% or so of the library scored in one or more.
SMILES,Cruzain Triton,RE007 growth inh,NS1 inh,Lassa entry inh,SARS PLpro yeast,Cruzain inh noDet,MARV entry inh,StopGo reporter
CCOCCCNC(=O)c1ccc2c(=O)n(CCCOCC)c(=S)[nH]c2c1,.,0%,.,-11%,2%,.,13%[46.1 µM],-20%
CCOc1ccc(N2CC(C(=O)Nc3ccc(S(=O)(=O)NCC4CCCO4)cc3)CC2=O)cc1 (centres undefined),.,0%,-3%,.,8%,.,8%[46.1 µM],10%
COc1cc(OC)cc(C(=O)NCC(=O)OCC(=O)c2cc(C)n(Cc3ccco3)c2C)c1,-13%,2%,4%,-5%,1%,1%,5%,-10%
CCC1(CC)Cc2ccccc2C(=O)N1,.,7%,-7%,0%,-2%,.,8%[46.1 µM],3%
O=C(CSCc1c(Cl)cccc1Cl)Nc1ccc2c(c1)OCCO2,-7.4%,-2%,-13%,5%,-18%,-6%,6%,-13%
c1ccc(CNC2=NCCCCC2)cc1,1.1%,15%,1%,10%,0%,-1%,3%,-13%
O=S(=O)(c1ccccc1)N(CC(F)(F)F)c1ccc(C(O)(C(F)(F)F)C(F)(F)F)cc1,-2.5%,4%,.,.,.,5%,.,?
O=C(NC1CCCCCC1)C(=S)N1CCOCC1,.,-22%,2%,3%,1%,.,11%[46.1 µM],-21%
CCOC(=O)N1CCC(NC(=O)CSCc2cnn(-c3ccccc3)c2-n2cccc2)CC1,-0.5%,21%,-34%,?,-11%,?,-20%,-24%
Cc1cc(C)nc(Nc2n[nH]c(-c3ccccc3Br)n2)n1,3.1%,-9%,-13%,5%,-6%,-6%,14%,43%[activator]
CCNC(=O)CC1C(=O)N(c2ccc(C)cc2)C(=O)N1CCc1ccc(OC)c(OC)c1 (centres undefined),2.0%,-3%,-19%,2%,-3%,4%,-3%,10%
O=C1/C(=C/c2cccnc2)CC/C1=C\c1cccnc1,.,-14%,.,-3%[46.1 µM],0%,.,?,28µM*
CCOc1ccccc1C(=O)Nc1ccc(NC(=O)c2ccccc2)cc1,.,-4%,?,.,3%,.,.,2%
COc1ccc(N2CCN(C(=O)Cc3ccc(-n4c(=O)[nH]c5ccccc5c4=O)cc3)CC2)cc1,-2.1%,0%,1%,-6%,-20%,17%,9%,?
COc1cccc2[nH]c3c(=O)n(CCN(C)C)cnc3c12,-8.2%,3%,4%,-7%,5%,25%,10%,10%
O=C(Cn1c(CN2CCCCC2)nc2ccccc2c1=O)NC1CCCCC1,-1.8%,-1%,5%,6%,-1%,6%,1%,12%
COC(=O)c1ccc(NC(=O)CN(Cc2ccccc2)S(=O)(=O)c2ccc(C)cc2)cc1,-8.2%,.,.,-28%[46.1 µM],.,-6%,?,12%
Cc1cc(C)c2c(=O)[nH]c(SCC(=O)NCc3ccccc3)nc2n1,-9.7%,-12%,-46%,-15%,5%,3%,7%,.
O=C(COC(=O)COc1ccc2ccccc2c1)Nc1cc(C(F)(F)F)ccc1N1CCOCC1,-7.7%,7%,-4%,-7%,-15%,14%,-26%,-5%
COc1cc(C)ccc1OCc1cc(C(=O)N(Cc2c(C)nn(C)c2C)C2CC2)no1,.,3%,-8%,-25%[46.1 µM],3%,.,?,-1%
COc1cccc(/C=N/NC(=O)c2cccc3ccccc23)c1,.,5%,-6%,10%[46.1 µM],0%,.,24%[46.1 µM],-20%
CCN(CC)S(=O)(=O)c1cccc2cccnc12,-3.2%,8%[3.69 µM],14%,-11%,2%,7%,2%,15%
CCOc1ccccc1CNC(=O)Cn1nc(C)c2c(C)n(-c3ccc(C)cc3)nc2c1=O,.,-10%,9%,.,17%,.,.,16µM*
Cc1nc(-c2ccc(NC(=O)C3CC3)cc2)cs1,.,-2%,-30%,-7%[46.1 µM],-15%,.,?,46%
CCC(C)n1c(O)c(C=NCC2CCCO2)c(=O)[nH]c1=S (centres undefined),.,14%,-3%,17%,-1%,.,6%[46.1 µM],1%
O=C(Oc1ccc(Br)cc1C(=S)N1CCOCC1)c1ccc([N+](=O)[O-])cc1[N+](=O)[O-],.,-11%,-15%,?,-2%,.,10%[46.1 µM],-27%
Cc1cccc(NC(=O)CSc2cccc3cccnc23)c1C,.,-1%,-34%,-8%[46.1 µM],-4%,.,16%[46.1 µM],-13%
O=C(c1ccco1)N1CCN(C(=S)Nc2ccc(F)c(Cl)c2)CC1,.,-9%,2%,.,-4%,.,.,-6%
CC(=O)Nc1ccc(NC2(C)C(=O)c3ccccc3C2=O)cc1,1.5%,12%,3%,24%,3%,-1%,2%,0%
CCC(C)Sc1nc2c(cnn2-c2ccc(C)c(C)c2)c(=O)[nH]1 (centres undefined),-1.4%,-1%,-2%,.,-2%,-5%,.,-4%
OCCNNC(=S)NC1CC2C=CC1C2 (centres undefined),.,5%,2%,9%,1%,.,?,-6%
COCCCNC(=O)c1c[nH]c2ccc(S(=O)(=O)N3CCC(C)CC3)cc2c1=O,.,-6%,.,-15%,0%,.,-8%[46.1 µM],0%
O=S(=O)(NCCC(c1ccc(F)cc1)c1ccco1)c1ccccc1 (centres undefined),-9.1%,-3%,-40%,-18%,-64%,-8%,-9%,4.5µM*
O=C(OCCN1CCOCC1)c1cccs1,4.4%,0%,-3%,17%,2%,5%,13%,23%
CCn1c(=NC(=O)CSC(C)=O)sc2cc(F)ccc21,-13%,-21%,3%,-10%,.,1%,?,-22%
Cc1ccc(CNC(=O)c2ccc(N(C)S(=O)(=O)c3ccccc3)cc2)cc1,.,-9%,-7%,?,-2%,.,?,24%
O=C(O)c1ccccc1-n1cccc1C(=O)O,.,12%,-1%,14%,-1%,.,-4%[46.1 µM],17%
O=C(CN1C(=O)C2CCCCC2C1=O)OCC(=O)c1ccc(Cl)s1 (centres undefined),.,3%,.,10%[46.1 µM],1%,.,0%[46.1 µM],4%
COc1ccc(Nc2nc(N3CCCCC3)nc(N3CCCCC3)n2)c(OC)c1,-4.6%,-7%,18%,-3%,2%,0%,-7%,-23%
COc1ccc(CCN(C)C2CCCN(S(=O)(=O)c3ccc(C)cc3)C2)cc1OC (centres undefined),.,2%,15%,.,1%,.,.,-28%
COCCOC(=O)C1=C(C)NC(=O)NC1/C=C/c1ccccc1 (centres undefined),1.4%,7%,-4%,-3%,0%,14%,8%,-13%
CC(C)CCN1C(=O)c2ccc(C(=O)NCc3ccco3)cc2C1=O,-2.1%,-1%,-11%,20%,-13%,-8%,16%[46.1 µM],-11%
CC(CNC(=O)C(C)C)NC(=O)C(C)C (centres undefined),-0.7%,11%,3%,4%,7%,-1%,15%,9%
COc1cc(/C=C/C(=O)N2CCN(C(=O)/C=C/c3cc(OC)c(OC)c(OC)c3)CC2)cc(OC)c1OC,.,-5%,-2%,-20%[46.1 µM],-1%,.,7%[46.1 µM],12%
O=C(O)CN=C(NS(=O)(=O)c1ccc(Cl)cc1)c1ccccc1,3.4%,8%,0%,-5%,-1%,-8%,13%,23%
Cc1cccc(C)c1OC1(c2ccccc2)OC(=O)c2ccccc21 (centres undefined),-1.4%,21%,-33%,9%,-19%,-22%,-5%,?
O=C(O)c1n[nH]c2c1CCCC2,-2.8%,-5%,1%,13%,1%,-5%,6%,?
C/C(=N/NC(=O)c1ccoc1C)c1ccc(NC(=O)C2CCCC2)cc1,-3.9%,8%,3%,?,1%,-4%,-12%,21%
CCCC(=O)NNC(=O)CC(=O)Nc1ccccc1C(=O)O,.,22%,9%,.,0%,.,0%,-5%
O=C(OCc1cccnc1)C1=Cc2ccccc2OC1,.,-14%,-7%,1%,-1%,.,-24%[46.1 µM],25%
Cc1ccc(NC(=O)c2ccccc2Cl)c(Cl)c1,-2.1%,?,-59%,-6%,-3%,-3%,17%,52%[activator]
Clc1ccc(Cn2ncc3c(NCc4ccco4)ncnc32)c(Cl)c1,-5.1%,-9%,-58%,?,-10%,-13%,?,?
CCCc1ccc2oc(C(=O)N3CCN(C4CCS(=O)(=O)C4)CC3)c(C)c2c1 (centres undefined),.,11%,3%,1%[46.1 µM],2%,.,13%[46.1 µM],1%
CCOc1ccccc1N(CC)C(=O)c1cc2c(=O)n(CC)c3ccccc3c2s1,-2.4%,.,.,-29%[46.1 µM],.,?,?,?
CN(C)CCCOC(=O)c1sc2ccccc2c1Cl,.,-9%,1%,-13%[46.1 µM],-1%,.,?,-6%
COc1ccccc1CNC(=O)Cn1cnnn1,.,1%,3%,.,-3%,.,.,-19%
Cc1nnc(N2CCCC(C(=O)NCc3ccc(OC(C)C)cc3)C2)c2nn(-c3ccccc3)c(C)c12 (centres undefined),.,3%,5%,.,0%,.,.,-25%
COc1ccc(NC(=O)C2=CC(c3ccco3)=NS(=O)(=O)N2C)cc1,0.4%,3%,23%,0%[46.1 µM],-1%,15%,13%[46.1 µM],-14%&-6%
COc1ccc(/C(C)=N/OCC(=O)N=Nc2c(O)[nH]c3ccccc23)cc1,-4.0%,-13%,4%,3%,0%,-6%,-3%,?
CCc1cccc(NC(=O)CSc2nccn2C)c1,-0.4%,.,.,?,.,18%,?,63%[activator]

# Carrying on:
SMILES,Cruzain Triton,RE007 growth inh,NS1 inh,Lassa entry inh,SARS PLpro yeast,Cruzain inh noDet,MARV entry inh,StopGo reporter
Cc1cccc(C)c1NC(=O)CN(C)C(=O)c1ccccc1OCc1ccc(F)cc1,.,14%,.,1%,12%,.,0%,-16%
CCOc1ccc2[nH]c(=S)[nH]c2c1,-4.0%,9%,-1%,0%,-3%,8%,14%[46.1 µM],5%
CN(C)S(=O)(=O)c1ccc(/C(O)=C2/C(=O)C(=O)N(Cc3cccnc3)C2c2cccs2)cc1 (centres undefined),.,-3%,15%,.,0%,.,1%[46.1 µM],6%
COc1ccc(CNC(=O)Cc2ccc(OC)c(S(=O)(=O)N3CCOCC3)c2)cc1,1.7%,5%,-11%,-4%,3%,-1%,1%,-17%

# Assay outcomes: PubChem, National Center for Advancing Translational Sciences (NCATS)
